# UUG fidelity – modulators of yeast start codon fidelity, primary screen, whole organism, S. cerevisiae, single point, plate reader; activity score, % at 18.7 µM; S. cerevisiae UUG-firefly luciferase reporter, luminescence/redox ratio; actives 0.13% (n = 350,000); AID 602363, 2012;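 active means replicate mean at a twofold rise or more, about +100% in these data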;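 further: firefly luciferase made from a UUG start codon reports start codon fidelity; reporter light over untreated wells divided by growth signal over untreated wells; some hits fall short of that in this replicate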
# MT1-MMP act inh – blockers of MT1-MMP proenzyme processing, primary screen, HT1080 RFP-PRO-GFP cells, GFP/RFP fluorescence. Matrix metalloproteinase-14 (Homo sapiens), P50281. GFP/RFP ratio fluorescence, overnight; percent of plate control window, DMSO zero. GFP/RFP ratio change, % at 20 µM. actives 0.061% (n = 360,000);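 active means GFP/RFP ratio change of at least 30% with cell ATP level not reduced by more than half and red fluorescence within 50% of control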; further: strong numbers were not always called active
#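 Material – HT1080 RFP-PRO-GFP cells · Control set – DMSO wells and RFP-L50D-GFP cells · Incubation – overnight cell settling, then overnight compound exposure, 37 °C, 5% CO2 · Compound dosing – single-point 20 µM compound, 1% DMSO · Read-out – GFP/RFP fluorescence ratio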
# CSC inhib – cancer stem cell viability inhibitors, primary screen, luminescence | actives 1.1% (n = 300,000) | cancer stem cell-like cells viability | inhibition, % at 7.5 µM;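 active means mean at 75% or more and at least half the replicates too; tested in HMLE shEcad cells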;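 further: 0% = median of negative and 100% = median of positive control wells; the first replicate is given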
# HIV Env fusion – inhibitors of HIV-1 Env-driven cell-cell fusion, primary screen, HeLa-JRFL effector, CEM21 target cells, luciferase | inhibition, % at 12.3 µM | actives 1.1% (n = 360,000);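 active means mean replicate inhibition score of at least 50 and every replicate individually at or above 50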;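 further: 0% = plate neutral controls and 100% = maraviroc near 300 nM; one replicate is shown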
# PABP polyA inh – PABP poly(A) RNA binding inhibitors, primary screen, biochemical, fluorescence polarization, uHTS. Polyadenylate-binding protein 1 (Homo sapiens), P11940. inhibition, % at 35 µM. actives 1% (n = 290,000);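 active means 50% or more with normal probe brightness, or confirmed in later tests; about a fifth of its hits are not listed in these tables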;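 further: calls also rest on retests at 20 µM and on dose response follow-up; controls were probe without protein and protein plus probe with vehicle; some compounds called inactive have numbers as strong as hits; many hits fall short of the cut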
# Rce1 inhib – yeast Rce1p protease inhibitors, primary screen, biochemical, fluorescence, cell-free homogeneous | CAAX prenyl protease 2 (Saccharomyces cerevisiae (strain ATCC 204508 / S288c)), Q03530 | yeast membranes, quenched prenylated peptide cleavage fluorescence | calls only | actives 0.27% (n = 290,000) | AID 2563, 2010;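 active means fall in fluorescence gain of 50% or more versus controls, with final raw signal at or below 3038400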;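 further: plate controls were neutral control wells for no effect and wells lacking membranes for full effect; tested at 10 µM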
# Target sequence (Q03530 whole entry, looked up): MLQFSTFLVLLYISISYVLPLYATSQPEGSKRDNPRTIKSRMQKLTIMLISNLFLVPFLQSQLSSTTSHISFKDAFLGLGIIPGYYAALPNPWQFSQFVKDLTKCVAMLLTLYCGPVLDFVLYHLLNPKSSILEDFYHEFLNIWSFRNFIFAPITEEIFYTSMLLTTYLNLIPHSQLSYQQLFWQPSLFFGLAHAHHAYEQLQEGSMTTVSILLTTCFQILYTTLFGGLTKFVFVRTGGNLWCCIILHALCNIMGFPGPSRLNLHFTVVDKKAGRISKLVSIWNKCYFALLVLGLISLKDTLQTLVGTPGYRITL
# eIF4H inh – human eIF4H binding inhibitors, primary screen, translation initiation inhibitor project, biochemical, uHTS, fluorescence polarization; Eukaryotic translation initiation factor 4H (Homo sapiens), Q15056; actives 0.94% (n = 290,000); inhibition, % at 35 µM; eIF4H fluorescence polarization binding assay;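 active means 50% or more with normal probe brightness, or confirmed in later tests; about a fifth of its hits are not listed in these tables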;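 further: calls also rest on retests at 20 µM and on dose response follow-up; 0% = protein and probe with vehicle and 100% = probe without protein; strong numbers were not always called active; many hits fall short of the cut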
# eIF4H inh retest – also measured in eIF4H inh; calls as there; inhibition, %; compound at 20 µM; confirmation average;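 mean of two retest wells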
# PABP polyA inh retest – also measured in PABP polyA inh; calls as there; inhibition, %; compound at 20 µM; confirmation repeats;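 mean of two retest wells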
# MT1-MMP act inh RFP – also measured in MT1-MMP act inh; calls as there; RFP signal change, %; measured here: RFP expression control read;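 0 = vehicle wells; hits needed this value within 50% of zero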
# Active calls of the source: *; i = inactive; · = not tested or not shown.
SMILES,UUG fidelity,MT1-MMP act inh,MT1-MMP act inh RFP,CSC inhib,HIV Env fusion,PABP polyA inh,Rce1 inhib,eIF4H inh,others
C=C1CSc2nc(=O)c3c(C)c(C)sc3n21,-12,9,-1,·,·,11,i,-4,
COc1ccc(NC(=O)C2(C)Cc3c(-c4ccc(N(C)C)cc4)ccnc3O2)cc1OC (stereo unspecified),-11,-3,-2,·,22,·,·,·,
O=C(O)c1cc([N+](=O)[O-])ccc1N1CCC(Cc2ccccc2)CC1,·,1,0,·,21,8,·,-8,
CCCCc1c(C)nc2cc(-c3ccco3)[nH]n2c1=O,2,-22,1,31,-11,4,i,-8,
CCCOc1ccc(CNC(=O)Cc2cccs2)cc1,-7,0,0,6,-43,1,i,13,
Cc1cc(Nc2ccccc2C(=O)O)nc2nc3ccccc3c(=O)n12,-21,4,3,-5,-44,3,i,-4,
CN(c1ccccc1C(N)=O)S(=O)(=O)c1ccccc1,-9,3,4,-8,·,-2,i,-4,
COc1ccc(S(=O)(=O)N2CCN(CC(=O)c3[nH]c(C)c(C(C)=O)c3C)CC2)cc1OC,6,1,-2,·,7,·,·,·,
Cc1cc(NC(=O)CN2CCCCC2C)no1 (stereo unspecified),1,4,9,-10,-11,-6,i,1,
O=S(=O)(c1cccc(C(F)(F)F)c1)N1CCC(O)(c2cccnc2)CC1,-11,8,3,10,·,2,i,0,
Cn1c(SCC(=O)NC2CCCCC2)nnc1-c1ccccn1,-22,-1,0,-11,-24,-5,i,4,
CC(C)CNC(=O)C1(C)CCCCCN1C(=O)c1csnn1 (stereo unspecified),-13,2,7,·,14,·,·,·,
CC(=O)N(CN1C(=O)c2ccccc2C1=O)c1cccc(C)c1,-21,-2,5,-6,13,-2,i,-7,
COc1cccc(N(C(=O)Cn2nnc(-c3cccs3)n2)C(C(=O)NC2CCCCC2)c2ccncc2)c1 (stereo unspecified),-28,-2,-6,-6,-113,0,i,5,
O=C(O)CCCC(=O)Nc1ccc(-n2ccc(C(F)(F)F)n2)cc1,4,3,3,-3,1,2,i,1,
CCC(C)NC(=O)CCC(=O)NNc1nc2ccccc2c2nc(C)nn12 (stereo unspecified),-1,1,1,7,32,-5,i,-5,
Clc1ccc(-c2nnc(C3CCCCC3)o2)cc1,-9,3,9,-2,-84,4,·,-4,
CC(=O)c1cc(C#N)c(N(C)Cc2ccccc2)nc1C,-8,-1,0,-10,17,-6,i,1,
N#C/C(=C\c1cn(Cc2ccccc2F)c2ccccc12)C(=O)NCc1ccco1,·,4,6,2,20,14,i,4,
O=C(Cn1ncn2nc(-c3ccccc3)cc2c1=O)NCc1ccccn1,0,6,2,-9,-6,3,i,-4,
COc1ccccc1CCNC(=O)C(=O)NCC1OCCN1S(=O)(=O)c1cc(F)ccc1F (stereo unspecified),-8,3,3,-8,·,2,i,1,
Cc1ccc(C(c2nnnn2C2CCCC2)N2CCN(c3nc4ccccc4s3)CC2)cc1 (stereo unspecified),-12,-8,-8,-3,·,·,i,·,
Cc1sc2ncnc(SCC(=O)NC3CCCC3)c2c1C,0,3,0,-5,-3,10,i,-4,
CCC(CC)Nc1ccc(C(CC(N)=O)NC(=O)Cc2ccc(Br)cc2)cc1[N+](=O)[O-] (stereo unspecified),-11,15,1,30,20,41,i,67,eIF4H inh retest=-14;PABP polyA inh retest=47
CCn1c(=O)c2cc(C(=O)N3CCN(C)CC3)sc2c2ccccc21,17,3,0,-10,5,-4,i,-6,
Cn1cnnc1SCC(=O)Nc1ccccc1,-5,1,9,-5,-1,-3,i,-4,
CN(Cc1c(C(=O)N2CCCCCCC2)nc2ccc(Cl)cn12)C1CCOC1 (stereo unspecified),-4,-3,0,-5,5,14,i,1,
COC(=O)NC1c2ccccc2Oc2ccc(C)cc21 (stereo unspecified),-24,-1,-1,-2,17,-8,i,-6,
C=CCSc1nc2c(cnn2-c2ccc(C)c(C)c2)c(=O)[nH]1,-9,1,5,-8,14,6,i,-8,
COc1cccc(NC(=O)c2c(F)cccc2F)c1,-7,-2,-2,-9,-9,·,·,·,
Cc1ccc(-n2ncc3c2CC(C)(C)CC3NC(=O)c2ccc[n+]([O-])c2)cc1 (stereo unspecified),-2,2,3,-9,5,-8,i,-5,
COCCNc1nc(C)cc(-c2cc(C(=O)NC3CCCC3)on2)n1,9,2,-1,2,-26,-4,i,-7,
COc1ccc(OC)c(NC(=O)C2C3CC4OC(=O)C2C4C3)c1 (stereo unspecified),-3,-1,4,-3,·,4,i,4,
Cc1cccc(C(=O)N[C@H](C(=O)NCc2cccs2)C(C)C)c1,-5,1,3,-4,·,·,·,·,
Cc1ccc([C@@H]2CC=C(C(=O)O)[C@H](c3ccc(F)cc3)N2S(=O)(=O)c2ccc(C)cc2)cc1,-17,-6,2,7,-32,·,·,·,
COC(=O)c1ccc(S(=O)(=O)NCc2ccc(OC)cc2)n1C,·,4,0,7,0,5,i,2,
CCc1nc2ccc(C(=O)NCCC(C)C)cn2c1N(C)Cc1nccs1,2,5,2,·,3,·,·,·,
CC(=O)Nc1c(C(=O)N2CCOCC2)sc2nc3c(cc12)COC(C)(C)C3,-24,5,5,-12,·,0,i,7,
CC(CN1CCOCC1)OC(=O)c1cccs1 (stereo unspecified),-18,1,3,2,·,-4,i,-2,
CCOC(=O)C1(C)CCN1C(=O)c1oc2ccccc2c1C (stereo unspecified),2,1,-1,·,-5,·,·,·,

# Molecules from the list above that contain four or more nitrogen atoms:
SMILES,UUG fidelity,MT1-MMP act inh,MT1-MMP act inh RFP,CSC inhib,HIV Env fusion,PABP polyA inh,Rce1 inhib,eIF4H inh,others
Cc1cc(Nc2ccccc2C(=O)O)nc2nc3ccccc3c(=O)n12,-21,4,3,-5,-44,3,i,-4,
Cn1c(SCC(=O)NC2CCCCC2)nnc1-c1ccccn1,-22,-1,0,-11,-24,-5,i,4,
CC(C)CNC(=O)C1(C)CCCCCN1C(=O)c1csnn1 (stereo unspecified),-13,2,7,·,14,·,·,·,
COc1cccc(N(C(=O)Cn2nnc(-c3cccs3)n2)C(C(=O)NC2CCCCC2)c2ccncc2)c1 (stereo unspecified),-28,-2,-6,-6,-113,0,i,5,
CCC(C)NC(=O)CCC(=O)NNc1nc2ccccc2c2nc(C)nn12 (stereo unspecified),-1,1,1,7,32,-5,i,-5,
O=C(Cn1ncn2nc(-c3ccccc3)cc2c1=O)NCc1ccccn1,0,6,2,-9,-6,3,i,-4,
Cc1ccc(C(c2nnnn2C2CCCC2)N2CCN(c3nc4ccccc4s3)CC2)cc1 (stereo unspecified),-12,-8,-8,-3,·,·,i,·,
CCC(CC)Nc1ccc(C(CC(N)=O)NC(=O)Cc2ccc(Br)cc2)cc1[N+](=O)[O-] (stereo unspecified),-11,15,1,30,20,41,i,67,eIF4H inh retest=-14;PABP polyA inh retest=47
Cn1cnnc1SCC(=O)Nc1ccccc1,-5,1,9,-5,-1,-3,i,-4,
CN(Cc1c(C(=O)N2CCCCCCC2)nc2ccc(Cl)cn12)C1CCOC1 (stereo unspecified),-4,-3,0,-5,5,14,i,1,
C=CCSc1nc2c(cnn2-c2ccc(C)c(C)c2)c(=O)[nH]1,-9,1,5,-8,14,6,i,-8,
Cc1ccc(-n2ncc3c2CC(C)(C)CC3NC(=O)c2ccc[n+]([O-])c2)cc1 (stereo unspecified),-2,2,3,-9,5,-8,i,-5,
COCCNc1nc(C)cc(-c2cc(C(=O)NC3CCCC3)on2)n1,9,2,-1,2,-26,-4,i,-7,
CCc1nc2ccc(C(=O)NCCC(C)C)cn2c1N(C)Cc1nccs1,2,5,2,·,3,·,·,·,

# Additional structures:
SMILES,UUG fidelity,MT1-MMP act inh,MT1-MMP act inh RFP,CSC inhib,HIV Env fusion,PABP polyA inh,Rce1 inhib,eIF4H inh,others
O=C(NCCN1CCCCCC1)C1CCCN1S(=O)(=O)c1cccc2nsnc12 (stereo unspecified),-9,11,17,15,-2,-2,i,8,
CCCOC(=O)c1ccc(-c2ccc(C=O)o2)cc1,-17,0,-1,-10,·,0,i,4,
COc1ccc(N2CCN(CCNC(=O)c3c(C)cc(=O)oc3C)CC2)cc1,14,-10,-3,·,22,10,i,8,
Cc1c(/C=N\NC(=O)c2cc3ccccc3o2)c2ccccc2n1C,·,-7,-16,-1,-176,-8,·,7,
O=C(CCc1c[nH]c2ccccc12)N1CCN(S(=O)(=O)c2ccccc2)CC1,·,8,-2,5,3,·,i,·,
Cc1cc(C)c2c(=O)[nH]n(C3CC(C)N(C)CC3C)c2n1 (stereo unspecified),-19,-3,5,-12,-6,0,i,-6,
COCCN(CC(=O)Nc1cccc(C)c1C)C(=O)Cc1ccsc1,-10,2,3,-11,·,·,·,·,
CCC(=O)N1C(=O)C2(Nc3ccccc3N2)c2ccccc21,·,·,·,8,·,-6,i,5,
C[N+]12CCCCC1[C@@H](CO)CCC2 (stereo partly specified),-18,2,6,-3,3,·,i,·,
CCN(CC)C(=O)CSc1nnc([C@@H](NC(=O)OC(C)(C)C)C(C)C)o1,-8,4,-2,-6,-30,-6,i,-3,
CN(C)c1c(F)cc(C(=O)NCc2ccccc2)cc1F,·,-3,3,0,-7,20,·,2,
CC(C)(C)C1CCC(C(=O)NCC(c2cccs2)N2CCOCC2)CC1 (stereo unspecified),-17,0,-4,·,9,16,i,-9,
COc1ccc(-n2c(SCc3nnc(-c4ccccc4)o3)nnc2-c2ccccc2)cc1,-18,3,6,4,-41,-13,i,-6,
Cc1cccc(N(C(=O)CCC(=O)Nc2cc(C)on2)C(C(=O)NC2CCCC2)c2ccncc2)c1 (stereo unspecified),-12,-7,-4,·,-15,-7,i,-8,
CN(c1cccc2cccnc12)S(=O)(=O)c1ccccc1,-17,1,2,-10,-27,5,i,-2,
CCc1cc2c(=O)n(-c3ccccc3)c(=S)[nH]c2s1,-12,·,·,-1,-14,-2,i,13,
CC(=O)Nc1cccc(OCc2ccc(F)cc2)c1,·,-1,2,-16,5,-11,i,-2,
CC(C)c1ccc(NC(=O)N2CCN(S(=O)(=O)c3ccccc3)CC2)cc1,·,-2,-4,·,-6,-9,i,12,
COc1ccc(/C=N/n2c(C)nc3ccccc3c2=O)cc1OC,-9,-1,-1,-8,-5,-1,i,3,
O=C(Cc1ccc(Cl)cc1)Nc1ncccn1,-6,1,4,0,-18,1,i,5,
NS(=O)(=O)c1ccc2ccccc2c1,0,-1,-2,4,5,-6,i,-4,
CCN(CC)S(=O)(=O)c1cc([N+](=O)[O-])ccc1NNC(=O)Nc1ccc(Cl)c(Cl)c1,-11,-6,-19,-24,97*,0,i,0,
c1csc(-c2csc3ncnc(NCCCN4CCOCC4)c23)c1,-9,-11,-8,0,68*,-8,i,-8,
OCCN(Cc1ccccc1)Cc1ccc(F)c(F)c1,·,-3,0,-11,·,13,i,2,
O=C(NCc1cccs1)C1CCCN(S(=O)(=O)c2ccc3c(c2)OCO3)C1 (stereo unspecified),-13,0,0,·,-4,-3,i,-1,
CC1CN(C(=S)Nc2ccccc2)N(c2ccccc2)C1 (stereo unspecified),·,0,1,-12,9,16,i,-4,
Cc1ccc(N2C(S)=C(C#N)C(=O)NC23CCCCC3)cc1,-11,-1,1,6,-3,-5,i,-4,
